fixLJ activator – B. multivorans fixK reporter activation | B. multivorans fixK-promoter GFP reporter, 18 h; active compounds read high | z-score (test concentration not listed) | actives 0.3% (n = 29,000) | AID 1918990;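 active = replicate mean overnight rise in green fluorescent reporter signal, 3 or more SD over negative controls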;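 also: score is relative to vehicle wells of the plate; 300 nL library stock went into each well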
* marks the source's active call; other numbers are inactive results.

SMILES | fixLJ activator
Cc1ccccc1NC(=O)c1c(NC(=O)c2ccccc2F)sc2c1CCC(C)C2 (stereo not drawn) | -1.08
CCOc1ccccc1NC(=O)C1CCCN(S(=O)(=O)c2c(C)[nH]c(=O)[nH]c2=O)C1 (stereo not drawn) | -0.39
COc1ccc2c(C)c(CCC(=O)NCCc3ccccc3)c(=O)oc2c1 | -2.33
COc1ccc(Nc2oc(/C=C/c3ccccc3OC)nc2C#N)cc1 | 0.03
Cn1c(=O)c2c(nc(Oc3ccc(C#N)cc3)n2Cc2ccc(Cl)cc2Cl)n(C)c1=O | -0.27
Cn1c(=O)oc2cc(S(=O)(=O)N3CCC(C(=O)NCc4ccccc4)CC3)ccc21 | -0.73
Cc1csc2nc(COc3ccccc3NC(=O)c3ccc(C(C)(C)C)cc3)cc(=O)n12 | -0.79
CCOc1ccc(CCCNC(=O)CCN2CCCCCC2=O)cc1 | 0.79
COCCCNc1nc2c(c(=O)[nH]1)Cc1ccccc1OC2 | -1.16
O=C(Nc1ccc(-n2cncn2)cc1)N1CCN(CC2CCCO2)CC1 (stereo not drawn) | -0.16
COc1cc(C2CC(=O)c3cnc(N4CCN(CCO)CC4)nc3C2)cc(OC)c1OC (stereo not drawn) | -2.61
COc1ccccc1C(=O)Oc1c(Sc2ccccc2)c(C)nn1-c1ccccc1 | -0.33
CCOC(=O)c1cnn(-c2ccc(OC)cc2)c1C1CCN(C(=O)OC(C)(C)C)CC1 | -0.02
Cc1oc(-c2ccccc2Cl)nc1CS(=O)CC(=O)NCc1ccccc1Cl (stereo not drawn) | -1.9
CCN(CC)CCNC(=O)c1cc2c(-c3cccc(OC)c3)nn(C)c2s1 | -2.62
COC(=O)c1ccc(C2c3c(-c4ccc(Br)cc4)n[nH]c3C(=O)N2c2ccc(Cl)cc2)cc1 (stereo not drawn) | 0.12
CC(C)c1ccc(NC(=O)Cn2nnc(C(=O)NCc3cccs3)c2N)cc1 | -1.92
COc1ccc(C2C(C(N)=O)=C(C)Nc3nc(-c4ccccc4Cl)nn32)cc1 (stereo not drawn) | -1.06
O=C(/C=C/c1ccccc1)Nc1cc(-c2nc3cc(Cl)ccc3o2)ccc1Cl | -2.81
CC(NC(=O)N1CCCN(C(=O)C(F)(F)F)CC1)c1ccc(Cl)cc1 (stereo not drawn) | 0.97
Cc1cccc(N2CC(c3nc4ccc(C)cc4[nH]3)CC2=O)c1 (stereo not drawn) | -2.06
Cc1nc(CC(=O)NCCc2noc(C3CCCO3)n2)c(C)s1 (stereo not drawn) | 0.14
Cc1cc(S(=O)(=O)Nc2ccc(O)c(Sc3nc4ccccc4s3)c2)ccc1Cl | -3.15
COc1cc(C2C(C(=O)Nc3ccc(C)cc3C)=C(C)Nc3nc(SCc4ccccc4)nn32)cc(OC)c1OC (stereo not drawn) | -1.96
Cc1ccc(NC(=O)Nc2cccs2)c(C)c1 | 0.64
Fc1ccccc1N1CCN(c2nccn3nc(-c4ccc(Br)cc4)cc23)CC1 | -0.94
CCCCN(C)CCNC(=O)c1ccc2c(=O)n(CCc3ccccc3)c(=O)[nH]c2c1 | -0.42
Cc1cc2ccccc2n2c(SCC(=O)Nc3cccc(C(F)(F)F)c3)nnc12 | -3.95
CCc1oc2c(NC(=O)NCCN3CCNC3=O)cccc2c1C | -2.16
CCOc1cc(C2C(C(=O)OC)=C(C)NC3=C2C(=O)c2ccccc23)cc(Cl)c1O (stereo not drawn) | 1.04
Cc1cc(C)n(Cc2ccc(C(=O)N3CCCCC3CCn3cccn3)cc2)n1 (stereo not drawn) | -1.53
CCCc1nc(C)cc(N2CCC3OCc4cnnn4C3C2)n1 (stereo not drawn) | -0.26
CCCN(c1ccc(C(C)C)cc1)S(=O)(=O)c1ccc2c(c1)n(C)c(=O)c(=O)n2C | -0.42
CCCc1nnsc1C(=O)NCC1CC(=O)N(C)c2ccccc21 (stereo not drawn) | -1.12
Cn1nc(C(C)(C)C)c2c1NC(=O)CC2c1c(Cl)nc2sccn12 (stereo not drawn) | -1.39
O=C(CSc1cn(CCNC(=O)c2c(F)cccc2F)c2ccccc12)Nc1ccc(F)cc1 | 0.09
CC(C)(O)C#Cc1ccc(C(=O)N2CCC2c2cccs2)o1 (stereo not drawn) | -1.43
O=C(Cc1cn2ccsc2n1)N(Cc1ccccn1)CC1CCCO1 (stereo not drawn) | -0.89
COc1cc(OC)cc(C(=O)N2CCN(C(=O)COc3ccc(C)cc3)CC2)c1 | -2.5
CC(C)C(=O)N1CCC(C(=O)NC2COCC2Cc2ccncc2)CC1 (stereo not drawn) | -0.62
Cc1ccc(Cl)cc1N1CCN(C(=O)C2CCN(Cc3nc(-c4ccc(Cl)cc4)oc3C)CC2)CC1 | -2.45
O=C(c1cccn1C1CC1)N1CCN(Cc2ncn[nH]2)CC1 | 0.42
CC(=O)c1cccc(NS(=O)(=O)c2ccc3c(c2)NC(=O)CC(=O)N3)c1 | -1.18
CC(C)(C)C1CCN(C(=O)c2cc3n(n2)CC(O)CNC3=O)CC1 (stereo not drawn) | 0.08
Cc1ccc(NC(=O)Cn2nnc(C(=O)NCCc3ccccc3)c2N)cc1 | -0.94
COc1ccc2c(c1)c(CC(=O)Nc1ccc(C(C)=O)cc1)c(C)n2C(=O)c1ccc(Cl)cc1 | -1.76
Cc1nccn1CC1(CNC2CCN(C(=O)c3ccncc3)CC2)CC1 | -2.68
Cc1cc(-c2nc3ncccc3o2)ccc1NC(=O)c1ccc(Cl)cc1 | -0.69
Cn1nnnc1SCCNCc1ccc(OCc2ccc(Cl)cc2)cc1 | -1.46
Cc1ccccc1-c1cc(O)c2c(c1)CN(C(=O)c1cnn(C)c1)CCO2 | -1.77
COc1ccc(-c2nc3ccc(C)cn3c2Nc2ccc3c(c2)OCO3)cc1 | 0.52
CCn1cc(C(=O)N2CCN(c3ccc(F)cc3)CC2)c(=O)c2cc(S(=O)(=O)N3CCOCC3)ccc21 | -1.02
CCOc1ccccc1NC(=O)Cn1c(=O)n(CCCC(=O)NCc2ccc(C)cc2)c(=O)c2ccccc21 | -0.42
COc1ccc(C2=NC(C)(C)N(CC(=O)Nc3cccc(C)c3)C2=O)cc1 | -2.55
O=C(c1ccn(C(F)F)n1)N1CC2COc3ccccc3C[C@@]2(C(=O)O)C1 (stereo partly drawn) | -1.67
CN(CC1(C)COC1)C(=O)c1coc(COc2cccc3cnccc23)n1 | -1.22
O=S(=O)(c1ccc(-c2csc(=Nc3ccc(OC(F)(F)Cl)cc3)n2CCCO)cc1)N1CCCC1 | 1.74
CC(C)c1ccc2oc(-c3ccc(NC(=O)c4cc5ccccc5o4)cc3)nc2c1 | -0.73
Oc1cccc(O)c1 | -0.05
COc1cc(C(=O)NCC(C)N)ccc1OC1CCN(C2CCCC2)CC1 (stereo not drawn) | 0.45
Other compounds:
SMILES | fixLJ activator
COc1ccc(CN(C(=O)c2cc3ccccc3oc2=O)C2CCS(=O)(=O)C2)cc1OC (stereo not drawn) | -4.01
Cc1cc2ccccc2n1CCNC(=O)c1cccc(Br)c1 | -0.36
O=C(Nc1cccc(-c2nc3ccccc3o2)c1)c1cc([N+](=O)[O-])ccc1N1CCOCC1 | -1.06
Cc1cccc(N2CCN(C(=O)CN3C(=O)COc4ccc(S(=O)(=O)N5CCCCCC5)cc43)CC2)c1C | -0.32
COc1ccc(S(=O)(=O)N2CCN(c3cccc(O)c3)CC2)cc1Cl | 0.52
Cc1cccc(C)c1NC(=O)Cn1nnc(C(=O)Nc2c(C)cccc2C)c1N | -1.59
CCc1ccc(C(=O)c2cnc3ccc(F)cc3c2S(=O)(=O)c2ccccc2)cc1 | -2.43
CCc1ccc(NC(=O)N(Cc2c[nH]c3ccccc23)C2CCCCC2)cc1 | -0.11
CCN1C(=O)c2ccccc2S(=O)(=O)c2ccc(C(=O)NCc3ccccc3)cc21 | -0.88
COc1cc(C)c(C)cc1S(=O)(=O)NC(C)c1nc(C)cs1 (stereo not drawn) | -0.57
CC(C)(C(=O)O)c1cnc(N2CCSCC2)nc1N1CCOCC1 | 0.51
Cn1c(=O)c(=O)n(C)c2cc(S(=O)(=O)N3CCN(c4ccc(F)cc4)CC3)ccc21 | 2.17
CCc1nn2c(=O)cc(CN3CC4COC[C@]4(C(=O)O)C3)nc2s1 (stereo partly drawn) | -0.82
CNCC[C@@H](Oc1ccccc1)c1ccccc1 | -0.64
CN(C)c1ccc(CCC(=O)NCCc2noc(C(F)(F)F)n2)cc1 | -0.17
CN(Cc1nc2ccc(F)cc2[nH]1)C(=O)CCC1CCOC1=O (stereo not drawn) | 0.62
COc1ccc(-c2cc(OC(=O)c3ccc(Cl)cc3)c3c(C)oc(C)c3c(=O)c2)cc1 | -1.99
CCCCNC(=O)c1ccc(OC2CCN(S(=O)(=O)N(C)C)CC2)cc1 | -1.16
CCOc1ccc(NC(=O)N2CCC(N3CCCCC3)CC2)cc1 | -1.38
c1ccc2c(c1)Cc1c(ncnc1NCCCCCN1CCOCC1)CO2 | -0.2
Cc1cc(Oc2c(C(F)(F)F)oc3c(CN4CCC(C)CC4)c(O)ccc3c2=O)cc(C)c1Cl | -2.71
Cc1cc(Cl)ccc1NC(=O)N1CCCN(C(=O)c2cncc(F)c2)CC1 | 0.11
O=C(c1ccc2c(c1)N(Cc1ccc(Cl)cc1)C(=O)c1ccccc1S2(=O)=O)N1CCOCC1 | -2
COc1ccccc1NC(=O)c1nc(SCc2ccc(F)cc2)ncc1Cl | 0.21
COc1ccc(-c2noc(COc3cc(C)ccc3C)n2)cc1OC | 0.07
COc1ccc(S(=O)(=O)N(CC(=O)NCc2ccccc2)c2ccc(C)cc2)cc1OC | -1.44
COc1ccc(CNC(=O)Cc2coc3ccc(C(C)C)cc23)cc1 | -1.14
Cn1c(NCCCO)nc2c1c(=O)n(Cc1cccc(F)c1)c(=O)n2C | -1.53
COc1cccc(-c2csc(-c3c(N)c(C(=O)c4ccc5c(c4)OCO5)n4ccccc34)n2)c1 | -0.53
Cc1nc2cc(C(=O)O)ccc2n1-c1ccc(C(C)C)cc1 | -2.36

Pulled by compound from the entries so far (2):
SMILES | fixLJ activator
CN(CC1(C)COC1)C(=O)c1coc(COc2cccc3cnccc23)n1 | -1.22
COc1ccccc1C(=O)Oc1c(Sc2ccccc2)c(C)nn1-c1ccccc1 | -0.33

Compounds above with a furan ring, fused or not (5):
SMILES | fixLJ activator
CCc1oc2c(NC(=O)NCCN3CCNC3=O)cccc2c1C | -2.16
CC(C)(O)C#Cc1ccc(C(=O)N2CCC2c2cccs2)o1 (stereo not drawn) | -1.43
CC(C)c1ccc2oc(-c3ccc(NC(=O)c4cc5ccccc5o4)cc3)nc2c1 | -0.73
COc1ccc(-c2cc(OC(=O)c3ccc(Cl)cc3)c3c(C)oc(C)c3c(=O)c2)cc1 | -1.99
COc1ccc(CNC(=O)Cc2coc3ccc(C(C)C)cc23)cc1 | -1.14

Not a retest: an excerpt of the list.
SMILES | fixLJ activator
Cn1c(NCCCO)nc2c1c(=O)n(Cc1cccc(F)c1)c(=O)n2C | -1.53
COc1cccc(-c2csc(-c3c(N)c(C(=O)c4ccc5c(c4)OCO5)n4ccccc34)n2)c1 | -0.53

(listing goes on)
SMILES | fixLJ activator
COc1ccc(-c2nc3c([nH]2)CN(C(=O)C(O)CC(C)C)CC3)cn1 (stereo not drawn) | -1.58
NC1CCN(c2c(F)cc3c(=O)c(C(=O)O)cn(C4CC4)c3c2Cl)C1 (stereo not drawn) | -4.39
Cn1c(=O)[nH]c(=O)c2c1nc(N1CCOCC1)n2Cc1ccccc1 | 0.95
Cc1cccc(NC(=O)C2CCCN(S(=O)(=O)c3ccc(Br)s3)C2)c1 (stereo not drawn) | -0.93
COCc1cc(CN2CC(C(=O)O)C3(CCOCC3)C2)ccc1OC (stereo not drawn) | 0.45
COc1cccc(-c2nc(S(=O)(=O)c3ccc(C)cc3)c(NCc3ccccc3)o2)c1 | 2.51
Cc1cc(C)c(Cn2c3ccccc3c3cnn(CC(=O)NCc4ccccn4)c(=O)c32)c(C)c1 | -2.54
COc1cccc([C@]2(O)CCCC[C@H]2CN(C)C)c1 | -0.79
CCCNC(=O)c1c(NC(=O)c2ccc(C)cc2)sc2c1CCCCC2 | -1.6
COc1ccc(CNc2nc(-c3ccco3)nn2C(=O)c2ccccc2Cl)cc1 | 1.11
CC(C)CNc1ncnc2onc(-c3ccc(Cl)cc3)c12 | -1.57
COc1ccccc1OCc1cc(C(=O)NCCC(C)C)n[nH]1 | -0.9
Cc1ccc(C(NC(=O)Cc2cccs2)C(=O)Nc2ccc(C(C)C)cc2)cc1 (stereo not drawn) | -0.93
CCC1CN(C(=O)N2CCC(C(=O)O)CC2)c2cc(C)ccc2O1 (stereo not drawn) | 0
CCn1c2ccccc2c2nnc(SCCN3CCCCC3)nc21 | -2
Cc1cccc(-c2noc(CN(C(=O)c3ccccc3Cl)C(C)C)n2)c1 | -2.18
Nc1nc(SCC(=O)Nc2cccc(C(F)(F)F)c2)n[nH]1 | -1.81
C[C@@H]1O[C@@H](O[C@H]2C[C@@H](O)[C@]3(CO)[C@H]4[C@H](O)C[C@]5(C)[C@@H](C6=CC(=O)OC6)CC[C@]5(O)[C@@H]4CC[C@]3(O)C2)[C@H](O)[C@H](O)[C@H]1O | -0.92
CCOc1ccc(NC(=O)CN2CCCN(Cc3cc(C)ccc3C)S2(=O)=O)cc1 | 0.25
NS(=O)(=O)CC1CCN(C(=O)c2ccc(C(F)(F)F)cc2)C1 (stereo not drawn) | -0.15
COc1ccc(NC(=O)Cn2c(=O)n(CCc3ccccc3)c(=O)c3sc4ccccc4c32)cc1 | -1.59
Cc1nnc(N2CCN(c3cccc(C(F)(F)F)c3)CC2)c2c1nnn2Cc1ccccc1 | -1.02
COC(=O)c1cc2sccc2n1Cc1ccccc1 | 0.31

Compound activity deposited in PubChem by ICCB-Longwood Screening Facility, Harvard Medical School.

This is a subset; rates above refer to the full screens.
